From PubChem
StopGo reporter – lowers the luciferase signal of an FMDV 2A StopGo reporter | human cells with a luciferase reporter of 2A StopGo recoding; control for the full effect not named in the record | actives 1.2% (n = 410,000) | Potency, µM (doses to about 57.9 µM), inactives show top-dose signal change, negative = less light; active = well fitted falling curve with a large enough effect; inconclusive = small, poorly fitted or top-dose-only effect; inactive = no such curve, though single readings can be large or run the other way; tested in HEK293T cells; also: % is scaled to controls: 0 for no effect and ±100 for the full control effect; nearly all actives have a fitted effect of over 45% in size; luciferase light after 4 h
RE007 growth inh – less growth of the S. pombe RE007 Vpr strain; AID 651644; actives 0.21% (n = 360,000); S. pombe RE007 Vpr strain, BacTiter-Glo ATP luminescence, 24 h; control for the full effect not named in the record; Potency, µM (highest dose often 92.2 µM), for the others: at the top dose activity change, negative = less growth; active = well fitted falling curve with a large enough effect; inconclusive = small, poorly fitted or top-dose-only effect; inactive = no such curve, though single readings can be large or run the other way;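 also: % is scaled to controls: 0 for no effect and ±100 for the full control effect; nearly all actives have a fitted effect of over 50% in size; the assay follows cell death caused by Vpr and the record does not say whether a fall means rescue or toxicity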
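Fission yeast strain RE007, carrying one chromosomally integrated HIV-1 vpr copy, was seeded at OD 0.01 in PMG+AL medium with 23 nL pinned compound. After 24 h at 30 °C and 99% humidity, viability was read by BacTiter-Glo luminescence.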
Marburg entry inh – Marburg virus entry inhibition. Marburg virus pseudotyped entry inhibition, cell reporter; control for the full effect not named in the record; about a third of the inactives were read at about 46 µM. Potency, µM (top dose mostly 37.8 µM), for the others: top-dose activity change, negative = inhibition, usual class: inhibitors. actives 1.8% (n = 300,000). AID 540276; active = well fitted inhibition curve with a large enough effect; inconclusive = small, poorly fitted or top-dose-only effect, or effect the other way; inactive = flat fitted curve, though single readings scatter; tested in HEK293 cells; about a fifth of its hits are not listed in these tables; also: % is scaled to controls: 0 for no effect and ±100 for the full control effect; luciferase read-out
LASV entry inh – blocks Lassa virus binding to or entry into cells. Lassa virus pseudotype entry inhibition, cell reporter; control for the full effect not named in the record. actives 1.2% (n = 300,000). Potency, µM (series often up to 37.9 µM), inactives show at the top dose activity change, negative = inhibition, actives largely listed as inhibitors; active means well fitted inhibition curve with a large enough effect; inconclusive means small, poorly fitted or top-dose-only effect, or effect the other way; inactive means flat fitted curve, though single readings scatter; tested in HEK293 cells; also: % is scaled to controls: 0 for no effect and ±100 for the full control effect; nearly all actives have a fitted effect of over 50% in size; luciferase read-out
Cruzain noTriton – cruzain (T. cruzi) inhibition without detergent; P25779; Potency, µM, without a hit: max response, negative = inhibition, actives largely listed as inhibitors; actives 2.3% (n = 200,000); purified cruzain, Z-FR-AMC fluorescence, no detergent;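 also: plate controls were enzyme without inhibitor for no effect and buffer without enzyme for full effect; nearly all actives have a fitted effect of over 40% in size; top concentration of the series not given in the record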
Target sequence (P25779 123-467 limits assumed): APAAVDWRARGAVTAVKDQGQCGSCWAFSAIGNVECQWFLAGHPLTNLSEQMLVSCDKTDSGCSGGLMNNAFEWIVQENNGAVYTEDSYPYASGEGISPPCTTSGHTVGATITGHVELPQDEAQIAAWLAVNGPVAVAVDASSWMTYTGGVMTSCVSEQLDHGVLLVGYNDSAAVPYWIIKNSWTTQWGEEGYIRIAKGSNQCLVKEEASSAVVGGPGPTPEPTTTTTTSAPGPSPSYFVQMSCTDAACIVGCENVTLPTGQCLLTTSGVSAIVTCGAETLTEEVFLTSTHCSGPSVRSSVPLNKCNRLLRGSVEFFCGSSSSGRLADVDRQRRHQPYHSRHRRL
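Detergent-free condition (0.00005% Triton X-100) in acetate buffer pH 5.5 with DTT. 1.5 nM enzyme and compound were pre-mixed 15 min, then 2 uM Z-FR-AMC substrate added; reaction progress from fluorescence change between first and third reads (60 s).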
Cruzain inh Det – blocks cruzain activity in presence of Triton detergent | Potency, µM, for the others: max response, negative = inhibition, actives largely listed as inhibitors | actives 0.43% (n = 200,000) | P25779 | purified cruzain, Z-FR-AMC fluorescence, 0.01% Triton;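 also: plate controls were neutral wells for no effect and buffer without enzyme for full effect; nearly all actives have a fitted effect of over 40% in size; top concentration of the series not given in the record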
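Read-out: AMC fluorescence (360 nm excitation, 450 nm emission), four reads over 2 min, first-to-third difference used. Conditions: cruzain 1.5 nM, Z-FR-AMC 2 uM, pH 5.5 acetate, 5 mM DTT, 0.01% Triton X-100.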
SARS PLpro yeast – inhibitors of SARS-CoV papain-like protease in yeast; AID 485353; actives 0.19% (n = 330,000); S. cerevisiae expressing SARS-CoV PLpro, growth rescue; control for the full effect not named in the record; Potency, µM (series often up to 32.9 µM), without a hit: at the top dose activity, positive = growth rescue; active means well fitted rising curve with a large enough effect; inconclusive means small, poorly fitted or top-dose-only effect; inactive means no such curve, though single readings can be large or run the other way; also: 0% is about no effect; nearly all actives have a fitted effect of over 55% in size; growth read by luminescence after 48 h
NS1 function inh – influenza NS1 inhibition | S. cerevisiae slowed by influenza A NS1, growth recovery by OD600 | Potency, µM (top dose mostly 46.1 µM), inactives show top-dose activity, positive = more growth | actives 0.4% (n = 270,000); active means well fitted rising curve with a large enough effect; inconclusive means small, poorly fitted or top-dose-only effect; inactive means no such curve, though single readings can be large or run the other way; also: nearly all actives have a fitted effect of over 50% in size
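A cell-based growth assay was used: compounds that relieve NS1-induced slow growth of budding yeast raise OD600. Assay medium was yeast nitrogen base with ammonium sulphate and -URA supplement, pH 6.0, with 2% galactose.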
Active calls of the source: *; ? = inconclusive; nt = not tested or not shown; & = joins results of further samples; [ ] = remark or other dose. Unless noted, calls follow the shape of the dose curve; as a rule, active = well fitted curve in the direction sought with a large enough effect; inconclusive = small, poorly fitted or top-dose-only effect, or another doubt; inactive = no such curve, though single readings can be large; an effect the other way counts as inactive or inconclusive. Potency is read from the fitted curve at half-maximal effect.

| Compound | StopGo reporter | RE007 growth inh | Marburg entry inh | LASV entry inh | Cruzain noTriton | Cruzain inh Det | SARS PLpro yeast | NS1 function inh |
| --- | --- | --- | --- | --- | --- | --- | --- | --- |
| Cc1[nH]c(=O)[nH]c(=O)c1NC(=O)c1cccs1 | -10% | -4% | ? | 2% | 8% | 3.7% | 3% | -4% |
| COc1ccc(/C=C/C(=O)NC(C)C)cc1Br | 19% | ? | 12% | 3% | 1% | -0.8% | -2% | -6% |
| Cc1ccc(NP(=O)(Oc2ccccc2)Oc2ccccc2)cc1 | -7% | 27% | 4%[46.1 µM] | ? | nt | nt | nt | nt |
| Cc1cccc(N(CC(O)CN(C)C)S(=O)(=O)c2ccccc2)c1 (configuration not stated) | -21% | 18% | ? | 4% | -1% | 4.4% | 0% | 6% |
| O=S(=O)(Nc1ccccc1)C1CCCCC1 | 13% | 2% | ? | 21%[46.1 µM] | nt | nt | nt | nt |
| CCOC(=O)c1c(NC(=O)c2cc3nc(-c4ccc(Br)cc4)cc(C(F)(F)F)n3n2)sc(C(C)=O)c1C | -15% | nt | nt | 1%[46.1 µM] | -8% | 3.2% | nt | nt |
| CN1C(C(=O)NCc2cccc(C(F)(F)F)c2)CC2Cn3c(nc4ccccc43)C21 (configuration not stated) | -7% | 3% | nt | nt | nt | nt | 1% | 3% |
| COc1ccc(C(=O)N2CCN(Cc3cn[nH]c3-c3ccc(OC)cc3F)CC2)cc1 | 4% | -25% | nt | nt | nt | nt | 3% | 6% |
| CCCCN(C)CCNC(=O)c1nn(-c2ccc(OC)c(Cl)c2)c(=O)c2c1c1ccccc1n2C | -30% | nt | 3%[46.1 µM] | ? | -2% | 0.1% | nt | nt |
| Cc1ccc2nc(N3CCN(Cc4nnnn4Cc4ccccc4)CC3)c(C#N)cc2c1 | -16% | -4% | -13% | ? | -15% | -0.2% | 0% | 15% |
| Cc1nnc(SCC(=O)Nc2nccs2)[nH]c1=O | -19% | 3% | 0% | 3% | -2% | 1.4% | 0% | 6% |
| C=CCOC(=O)C1=C[C@@H](c2ccc(Br)cc2)[C@H](CCCO)[C@@H](OCC)O1 | -26% | 28% | nt | nt | nt | nt | 0% | -5% |
| COc1ccc2[nH]cc(CCNC(=O)C3CCCCC3)c2c1 | 15% | 12% | -23%[46.1 µM] | ? | nt | nt | 0% | ? |
| Cc1ccc(-c2nn(CC(=O)Nc3cccnc3)c(=O)c3ccccc23)cc1 | -24% | -17% | -28% | -5% | 1% | -8.4% | 7% | -7% |
| O=C(NCc1ccco1)C(=S)N1CCCCC1 | 5% | -5% | 5%[46.1 µM] | 28% | nt | nt | -1% | 7% |
| c1ccc2nc(-c3nccs3)ccc2c1 | 16% | -7% | 10%[46.1 µM] | 21%[46.1 µM] | nt | nt | -1% | -7% |
| CCOC(=O)c1c(C)[nH]c(C)c1S(=O)(=O)N(C)CC(=O)Nc1cc(Cl)ccc1C | -20% | nt | nt | -10%[46.1 µM] | 15% | 0.5% | nt | nt |
| O=C(CCNC(=O)c1ccccc1Cl)Nc1nc(-c2ccc(F)cc2)cs1 | ? | -11% | -28% | ? | -1% | -5.2% | 26% | 1% |
| O=C(O)CCCNc1ccc(S(=O)(=O)Nc2ccccc2C(=O)O)cc1C(=O)O | 18% | 11% | 5% | 5% | -8% | 1.2% | -4% | -1% |
| Cc1noc(C)c1C(=O)Nc1nc(-c2ccc(F)cc2)cs1 | -1% | -10% | -2% | 4% | nt | nt | ? | nt |
| CC(=O)C1C(c2ccc(Cl)cc2)NC(=O)NC1(O)C(F)(F)F (configuration not stated) | -3% | 5% | 2% | nt | -1% | 4.6% | 1% | -3% |
| O=C(O)C1CC2C3CC(C(=O)O)C(C3)C2C1 (configuration not stated) | 3% | 4% | 26% | 16% | nt | nt | nt | nt |
| Cc1ccc(N2CCN(C(=O)c3cc(COc4c(C)cccc4C)on3)CC2)c(C)c1 | -19% | 2% | -8% | 0% | nt | nt | -2% | ? |
| O=C(Nc1ccc(F)cc1F)N1CCCN(c2ccc([N+](=O)[O-])cn2)CC1 | ? | 1% | 4% | 10% | nt | nt | 0% | 6% |
| Cc1cc(C)cc(N(CC(=O)N2CCc3ccccc32)S(=O)(=O)c2c(C)noc2C)c1 | 0% | -13% | nt | nt | -8% | -2.5% | 5% | -22% |
| CCCNC(=O)C1CCN(S(=O)(=O)c2ccc3nc4c(c(C(=O)O)c3c2)CCCCC4)CC1 | -17% | -7% | -3%&-3% | 17% | 3% | 0.4% | 5% | -6% |
| CCOC(=O)N1CCN(C(=O)c2ccccc2NC(=O)COc2ccccc2C)CC1 | ? | 0% | nt | nt | 9% | -1.8% | -5% | -2% |
| COc1ccc(Cc2nnc(NC(=O)c3ccc(Cl)c([N+](=O)[O-])c3)s2)cc1 | -15% | -3%[3.69 µM] | 0% | 15% | 16µM* | 7.5% | 3% | 27% |
| CCc1cc2c(NCC(=O)O)ncnc2s1 | 0% | 5% | 16% | 2% | -6% | 4.9% | 8% | -5% |
| COC(=O)c1cccc(S(=O)(=O)N(Cc2ccco2)Cc2cc3ccc(OC)cc3[nH]c2=O)c1 | -24% | 16% | -29% | 3% | ? | -8.3% | 8% | 4% |
| Cn1c(-c2c(N)n(CCCc3ccccc3)c3nc4ccccc4nc23)nc2ccccc21 | -28% | ? | ? | ? | ? | 4.2% | -3% | -40% |
| Cc1cc(N/C=C2\CCCCC2=O)no1 | nt | 12% | 27% | 2% | -2% | -9.3% | -3% | -6% |
| CCCC(=O)n1nc(-c2cccnc2)nc1N | 0% | -16%[3.69 µM] | 0% | 5% | 2% | -5.3% | -1% | -1% |
| c1ccc(-c2ccc(CN3CCSCC3)cc2)cc1 | 13% | 9% | 22%[46.1 µM] | 8%[46.1 µM] | nt | nt | 1% | -16% |
| COC(=O)c1[nH]c2ccccc2c1NC(=O)c1ccccc1[N+](=O)[O-] | -15% | -18% | ? | -1% | 2% | -3.5% | -2% | 9% |
| Cc1ccc(NC(=O)CCCn2nc(C)c3sc4ccccc4c3c2=O)c(Cl)c1 | 0% | nt | ? | 14%[46.1 µM] | 4% | -11% | nt | nt |

Reformatted as labelled records: part of the list above
> CC(=O)C1C(c2ccc(Cl)cc2)NC(=O)NC1(O)C(F)(F)F (configuration not stated)
- StopGo reporter: -3%
- RE007 growth inh: 5%
- Marburg entry inh: 2%
- LASV entry inh: nt
- Cruzain noTriton: -1%
- Cruzain inh Det: 4.6%
- SARS PLpro yeast: 1%
- NS1 function inh: -3%

> Cc1ccc2nc(N3CCN(Cc4nnnn4Cc4ccccc4)CC3)c(C#N)cc2c1
- StopGo reporter: -16%
- RE007 growth inh: -4%
- Marburg entry inh: -13%
- LASV entry inh: ?
- Cruzain noTriton: -15%
- Cruzain inh Det: -0.2%
- SARS PLpro yeast: 0%
- NS1 function inh: 15%

> Cn1c(-c2c(N)n(CCCc3ccccc3)c3nc4ccccc4nc23)nc2ccccc21
- StopGo reporter: -28%
- RE007 growth inh: ?
- Marburg entry inh: ?
- LASV entry inh: ?
- Cruzain noTriton: ?
- Cruzain inh Det: 4.2%
- SARS PLpro yeast: -3%
- NS1 function inh: -40%

> COC(=O)c1[nH]c2ccccc2c1NC(=O)c1ccccc1[N+](=O)[O-]
- StopGo reporter: -15%
- RE007 growth inh: -18%
- Marburg entry inh: ?
- LASV entry inh: -1%
- Cruzain noTriton: 2%
- Cruzain inh Det: -3.5%
- SARS PLpro yeast: -2%
- NS1 function inh: 9%

Carrying on.
Results follow in this order: StopGo reporter	RE007 growth inh	Marburg entry inh	LASV entry inh	Cruzain noTriton	Cruzain inh Det	SARS PLpro yeast	NS1 function inh
CCOc1ccc(NC(=O)c2c3c(nc4ccccc24)CCC3)cc1
    6%	-19%	-17%[46.1 µM]	23%[46.1 µM]	nt	nt	-1%	8%
CCOC(=O)c1ccccc1NC(=O)CN(c1ccccc1OC)S(=O)(=O)c1ccc(C)cc1
    -13%	nt	nt	?	2%	-0.2%	nt	nt
Cc1cc2cc(CCNS(C)(=O)=O)c(=O)[nH]c2cc1C
    -1%	0%	-3%	-2%	-11%	-0.3%	4%	12%
COc1ccccc1/C=C/CN1CC(C)OC(C)C1 (configuration not stated)
    17%	-5%	-9%	11%	1%	-0.7%	-8%	3%
Cc1cc(C)n(Cc2ccc(C(=O)O)cc2)n1
    nt	1%	8%	4%	-9%	3.6%	1%	-3%
Cc1ccc(S(=O)(=O)N2CCC(Oc3ccc(-n4cnnn4)cc3)CC2)cc1
    -23%&-28%	7%	5%&5%[46.1 µM]	8%[46.1 µM]	9%	-0.4%	2%	-5%
CP(=O)(COC(=O)c1ccccc1)COC(=O)c1ccccc1
    -9%	-16%	?	17%	1%	5.2%	1%	-3%
COCCNc1nc(N)c([N+](=O)[O-])c(NCCO)n1
    19%	5%	8%	4%	0%	-7.6%	16%	8%
CCOc1ccccc1C(=O)N(CN1CCCC1=O)c1ccc(C)c(Cl)c1
    -24%	6%	?	-4%	12%	2.7%	-2%	-11%
CCOC(=O)N1CCN(C(=O)Cn2ccc3c(OC)cccc3c2=O)CC1
    -14%	13%	nt	nt	nt	nt	1%	15%
Cc1cc(Cl)ccc1NC(=O)C1CCCN(c2nnc(C)c3c(C)n(-c4ccccc4)nc23)C1 (configuration not stated)
    -1%	nt	nt	-2%[46.1 µM]	-11%	0.6%	nt	nt
O=C(CSc1nc2ccccc2nc1Cc1ccc(Cl)cc1)N1CCN(c2ccccc2F)CC1
    -21%	nt	nt	1%[46.1 µM]	5%	3.4%	nt	nt
Cc1nn(C)c(C)c1NC(=O)CSc1nnc(C)n1-c1ccccc1
    -21%	5%	1%	6%	-1%	-0.5%	1%	-2%
COc1ccc(CCNC(=O)COC(=O)c2cccs2)cc1
    -9%	9%	4%[46.1 µM]	12%	nt	nt	-2%	nt
